Vif TR-FRET: inhibitors of Vif binding to APOBEC3G peptide, primary screen, biochemical, TR-FRET, GST-Vif 1-94, biotin-A3G peptide, dose response retest (AID 1117319); Virion infectivity factor (Human immunodeficiency virus type 1 group M subtype B (isolate …; 260,000 tested, 0.57% active; inhibition, %, or IC50 in µM where a hit was titrated; TR-FRET GST-Vif / biotin-A3G peptide binding; higher % means a stronger effect; test concentration not given here; strong numbers were not always called active;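 active = above the screen mean plus three standard deviations and confirmed in dose response; inconclusive = results disagree or hit not tested in dose response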;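 note: Vif residues 1-94 fused to GST binding biotinylated APOBEC3G peptide 110-148; 0% = full assay without inhibitor and 100% = GST in place of GST-Vif; retest series ran down from 100 µM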
HNF4A DNA FP: change in binding of human HNF4A to DNA, primary screen, biochemical, fluorescence polarization, FITC-DNA; Hepatocyte nuclear factor 4-alpha (Homo sapiens), P41235; 1 h; activity change, % at 10 µM; 360,000 tested, 0.3% active; AID 1224865, 2016; in the data active = activity change above about 30%, passing the limit was not always enough;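 note: controls were the assay level and a saturating level of protein; the project sought stronger binding though the title names inhibitors; some compounds called inactive have numbers as strong as hits; positive values seem to mean higher polarization but the record does not say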
Bfl-1 A1 inh: caspase 3/7 activation in MEF A1-2A-BIM cells, primary screen, A1 inhibitor project, cell-based, luminescence, HTS; Caspase-Glo 3/7 luminescence, 3 h; percent of clofoctol response, vehicle zero; 330,000 tested, 0.066% active; AID 2462, 2010; caspase activation, % (concentration not given with the values);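 active = over half of replicate activation scores above 10%, or exactly half above 10 with the replicate mean above 10; inconclusive = replicate mean below 10 yet half the replicates above 10; inactive = over half of replicates below 10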;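 note: wells of about 30 µL received 50 nL stock; many hits fall short of the cut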
UCH37 inh: inhibitors of human UCH37 deubiquitinase, primary screen, biochemical, Ub-AMC cleavage, fluorescence | purified proteasome/UCH37 | inhibition, % (concentration not given with the values) | 330,000 tested, 0.33% active | AID 588478, 2011;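 active = mean of two replicates above 20%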;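 note: 0% = compound-free wells with enzyme and 100% = wells lacking proteasome; stock transfer was 100 nL into about 20 µL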
Target sequence (Q9Y5K5 whole entry, looked up): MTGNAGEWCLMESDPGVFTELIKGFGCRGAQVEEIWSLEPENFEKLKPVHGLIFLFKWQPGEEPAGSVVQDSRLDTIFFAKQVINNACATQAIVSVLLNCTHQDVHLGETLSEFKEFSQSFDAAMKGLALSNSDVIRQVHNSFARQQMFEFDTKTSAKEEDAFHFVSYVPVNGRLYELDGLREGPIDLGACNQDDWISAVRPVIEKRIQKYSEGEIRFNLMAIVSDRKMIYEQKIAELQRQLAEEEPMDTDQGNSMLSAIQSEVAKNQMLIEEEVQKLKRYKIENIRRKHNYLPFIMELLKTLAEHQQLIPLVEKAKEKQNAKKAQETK
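system = Proteasome-associated human UCH37 deubiquitinase | amount = 0.15 nM proteasome as dispensed | medium = pH 7.4 Tris-HCl (50 mM) with ovalbumin, ATP-MgCl2, DTT | incubation = 30 min preincubation with enzyme, 25 min cleavage at room temperature | detection = AMC fluorescence 355/460 nm | read-out basis = percent inhibition | controls = no-proteasome and no-compound wells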
Beta2AR agonist: beta2AR agonists driving receptor internalization, primary screen, cell-based, FAP fluorogen, flow cytometry; Am2.2-beta2AR cells; reference of the scale not given here; response, % (concentration not given with the values); 340,000 tested, 0.43% active; AID 504454, 2011;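 active = response above a set limit, near 3 SD of response in nonfluorescent compounds, cut at about 42% in these data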;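 note: stock transfer was 100 nL into about 11 µL; a reference agonist was the positive control; negative values mostly stem from fluorescent compounds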
Target sequence (P07550 whole entry, looked up): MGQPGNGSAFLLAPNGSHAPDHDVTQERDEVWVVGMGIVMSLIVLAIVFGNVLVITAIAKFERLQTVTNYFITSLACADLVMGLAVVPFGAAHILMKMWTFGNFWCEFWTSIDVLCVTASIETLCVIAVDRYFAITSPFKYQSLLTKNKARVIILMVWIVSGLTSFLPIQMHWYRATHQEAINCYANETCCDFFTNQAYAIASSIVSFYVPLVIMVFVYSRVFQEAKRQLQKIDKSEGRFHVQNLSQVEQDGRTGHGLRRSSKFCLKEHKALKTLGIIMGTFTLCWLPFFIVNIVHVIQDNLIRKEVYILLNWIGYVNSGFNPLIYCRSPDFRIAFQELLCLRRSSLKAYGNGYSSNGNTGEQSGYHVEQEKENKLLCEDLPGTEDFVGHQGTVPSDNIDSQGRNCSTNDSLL
E coli growth: E. coli growth inhibition, primary screen, OD600 | 330,000 tested, 0.21% active | OD600 absorbance (no concentration beside the values) | Escherichia coli growth, 23 h; active compounds read low;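 active = OD600 absorbance below the run mean of sample wells minus 3.6 SD, in any replicate, cut at about 0.56 in these data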;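 note: stock transfer was 300 nL into about 60 µL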
LANA-H2B inh: blockers of LANA interaction with H2A/H2B – biochemical, FP readout, HTS, primary screen; cell-free LANA-H2A/H2B peptide, fluorescence polarization; 320,000 tested, 0.6% active; inhibition, % (no concentration beside the values); AID 2629, 2010; Protein LANA1 (Human herpesvirus 8 type P (isolate GK18)), Q9QR71; in the data active = inhibition mostly above about 10%, no sharp cut-off; inactive = mostly below about 6.7%;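 note: stock transfer was 7.5 nL into about 10 µL; 0% = median of vehicle wells and 100% = median of positive control wells; one replicate is shown; the record names a cut of 25% in any replicate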
An asterisk follows results filed as active; i = inactive; ? = inconclusive; / = not tested or not shown.

SMILES	Vif TR-FRET	HNF4A DNA FP	Bfl-1 A1 inh	UCH37 inh	Beta2AR agonist	E coli growth	LANA-H2B inh
CC(C)(C)NS(=O)(=O)c1ccc(OCC(=O)Nc2ccc3c(c2)OCCO3)cc1	-2%	-1.7	-0.7	0.6	4	0.73	-5.3
O=c1cc(CO)[nH]cc1OCc1ccccc1	-7%	4.3	0.1	3.2	9	0.65	2.5
O=C(c1cc2ccccc2oc1=O)N(Cc1cccc(Br)c1)C1CCS(=O)(=O)C1 (stereo unspecified)	-4%	2.4	1.3	1.7	-10	0.63	-8.0
CC1CN(S(=O)(=O)N(C)C)CCN1S(=O)(=O)N(C)C (stereo unspecified)	-3%	4.9	-0.3	2.2	-3	0.67	3.7
Cc1nc(SCC(=O)NCC2CCCO2)[nH]c(=O)c1C (stereo unspecified)	3%	-5.7	0.7	0.3	-5	0.65	1.5
CCCCN(CCCC)Cc1ccc(C(=O)NNC(=O)Nc2ccc(F)cc2)o1	25%	1.0	-0.9	4.2	3	0.68	2.2
CCc1ccc(C2C(C(C)=O)=C(C(=O)OC)Nc3nnnn32)cc1 (stereo unspecified)	69%	-2.7	0.3	11	6	0.68	1.7
CCN(CC(=O)NCc1cccs1)C(=O)c1ccc(-c2ccc(F)cc2)o1	/	3.2	-1.6	-1.5	-5	0.69	0.0
Cn1c(CCN2CCCCC2)nc2cc(NC(=O)COc3ccccc3)ccc21	/	-0.8	0.2	2.7	-12	0.66	-0.2
CCOC(OCC)P(=O)(c1ccccc1)c1ccccc1	4%	1.4	-0.1	1.2	-2	0.68	0.3
CCCSCCCNC(=O)Cn1cc2c(n1)CCCCC2	-2%	1.4	0.1	2.6	0	0.72	-4.5
COc1cc(C)c(N)cc1C(C)C	8%	1.3	-0.2	0.4	18	0.65	2.7

Reformatted with two lines to a compound: 5 of the compounds above
Under each structure – Vif TR-FRET	HNF4A DNA FP	Bfl-1 A1 inh	UCH37 inh	Beta2AR agonist	E coli growth	LANA-H2B inh
O=c1cc(CO)[nH]cc1OCc1ccccc1
 : -7%	4.3	0.1	3.2	9	0.65	2.5
O=C(c1cc2ccccc2oc1=O)N(Cc1cccc(Br)c1)C1CCS(=O)(=O)C1 (stereo unspecified)
 : -4%	2.4	1.3	1.7	-10	0.63	-8.0
CC1CN(S(=O)(=O)N(C)C)CCN1S(=O)(=O)N(C)C (stereo unspecified)
 : -3%	4.9	-0.3	2.2	-3	0.67	3.7
Cc1nc(SCC(=O)NCC2CCCO2)[nH]c(=O)c1C (stereo unspecified)
 : 3%	-5.7	0.7	0.3	-5	0.65	1.5
CCCCN(CCCC)Cc1ccc(C(=O)NNC(=O)Nc2ccc(F)cc2)o1
 : 25%	1.0	-0.9	4.2	3	0.68	2.2

Later entries.
SMILES	Vif TR-FRET	HNF4A DNA FP	Bfl-1 A1 inh	UCH37 inh	Beta2AR agonist	E coli growth	LANA-H2B inh
O=C(Cn1ncn2c(cc3ccccc32)c1=O)NCc1ccco1	21%	-6.7	-0.7	0.0	2	0.68	9.8
O=S(=O)(Nc1cc(Cl)ccc1N1CCOCC1)c1ccccc1Cl	/	-0.5	-0.3	0.1	8	0.71	17*
Cc1ccc(OC(C)C(=O)N=Nc2c(O)[nH]c3ccc([N+](=O)[O-])cc23)cc1 (stereo unspecified)	6%	3.3	0.8	3.3	7	0.64	12
CCn1cc(C(=O)NCCCN2CCC(C)CC2)c(=O)c2cc(S(=O)(=O)N3CCOCC3)ccc21	/	3.7	0.8	2.0	10	0.66	0.2
CCC(CO)Oc1cc(NCc2ccccc2Cl)c2ncn(C(C)C)c2c1 (stereo unspecified)	/	-6.1	1.7	-0.4	9	0.67	7.7
COc1cc2c(cc1OC)[C@H](C)N(C(=O)CSc1nc(O)c(C(C)C)c(=O)[nH]1)CC2	/	0.9	0.4	9.3	1	0.73	4.4
COc1ccc2cc3cc(C(=O)NCCN4CCN(Cc5ccccc5)CC4)oc3nc2c1	-7%	0.6	0.2	i	13	0.69	1.2
Nc1ccc(Oc2ccc3c(c2)C(=O)NC3=O)cc1	/	-0.9	-0.5	2.1	-1	0.66	5.6
CCc1ccc(NC(=O)C(=O)NNC(=O)c2cccc(OC)c2)cc1	-4%	-3.6	0.7	3.1	-5	0.64	-5.9
CCCc1cc(=O)[nH]c(SC(C)C(=O)Nc2ccc3c(c2)OCCO3)n1 (stereo unspecified)	1%	-0.8	-0.4	-1.3	3	0.65	-5.6
C=CCOc1nc(-c2ccncc2)nc2ccccc12	-3%	-1.3	-0.7	2.2	4	0.68	0.5
O=C(Nc1nccs1)[C@@H]1CCCN1C(=O)c1cccs1	-3%	0.9	0.2	0.7	-1	0.66	-0.6
Cc1ccc(N(CC(=O)NC2CCC(C)CC2)S(=O)(=O)c2cccnc2)cc1 (stereo unspecified)	0%	4.1	0.4	3.6	-2	0.74	1.6
O=c1c2ccccc2c2ccccc2c(=O)n1Cc1ccco1	9%	2.1	0.0	-0.7	-9	0.68	-3.9
COc1cccc(C2N(c3cccc(Cl)c3)C(=O)C3CCCN32)c1OC (stereo unspecified)	1%	-0.3	-1.0	-1.1	-2	0.72	-1.5
Cn1nnnc1SCC(=O)N1CCCc2ccccc21	3%	4.2	0.9	2.8	-6	0.7	-3.6
Cn1c(SCC(=O)NCC2CCCO2)ncc(C(=O)Nc2ccc(F)cc2)c1=O (stereo unspecified)	-8%	3.8	0.8	-112	46*	0.65	0.7
CC(C)c1nnc(NC(=O)CSc2ccccc2)s1	3%	-0.9	-0.5	6.9	0	0.78	-2.5
O=C1CNC(=O)/C(=C/c2cccs2)N1	/	2.2	-0.9	8.1	-8	0.75	-2.2
Cc1ccnc(NC(=O)C(C)n2cc([N+](=O)[O-])cn2)c1 (stereo unspecified)	?	-1.4	0.3	1.0	-2	0.69	5.1
O=C(Nc1nc(-c2ccc(Oc3ccccc3)cc2)cs1)C1=COCCO1	1%	-6.2	-0.1	-4.0	-9	0.75	2.1
Cc1onc(-c2ccccc2Cl)c1C(=O)NCc1ccccc1	-7%	-4.1	0.6	2.6	1	0.67	-2.2
COc1ccccc1CN1CCN(Cc2ccc3ccccc3c2)CC1	-7%	-1.4	-0.4	3.6	-10	0.6	-1.6
Cc1ccc(NC(=S)NC(NC(=O)N(C)C)C(Cl)(Cl)Cl)cc1 (stereo unspecified)	/	-0.6	1.1	3.5	13	0.66	-1.6
O=C(COC(=O)c1ccc(F)cc1Cl)NCc1ccco1	21%	-5.3	/	-2.1	1	0.7	/
COc1ccc(F)cc1S(=O)(=O)n1cc(C)nc1-c1ccccc1	/	-1.0	-0.8	0.1	0	0.68	-0.4
CN(C)C(=O)c1nc(C#N)c(N(C)C)o1	5%	-2.7	0.0	1.9	3	0.67	-0.7
O=C1NC[C@H](Cc2ccccc2)N(CC2CCN(CCc3ccc(-c4ccccc4)cc3)CC2)C1=O	6%	3.4	/	/	12	/	/
COc1ccc(CN(C)C(=O)c2cccc(NS(=O)(=O)c3ccccc3)c2)cc1F	/	3.0	0.4	6.5	-1	0.7	-0.6
CC(=O)n1cc([C@@H]2C=C(C(=O)NCc3ccccc3)O[C@H](OCCCCO)C2)c2ccccc21	?	-0.2	-1.3	-0.1	-2	/	-5.4
COc1ccc(C2=NOC3(CC(=O)N(c4ccc(C)cc4)C3=O)C2)cc1 (stereo unspecified)	0%	-1.6	0.2	3.2	-3	0.76	3.1
O=C(NCc1ccc2[nH]c3c(c2c1)CCCC3)c1ccc(S(=O)(=O)N2CCOCC2)cc1	30%	-0.2	0.6	3.9	4	0.73	-2.2
CCOC(=O)/C(C#N)=C1/C=C(C)c2ccccc2N1	-2%	-1.9	-0.1	/	-6	/	-0.3
CCCCNC(=O)c1onc(CSc2ccccc2CC)c1C(=O)O	19%	4.1	-1.4	/	-1	/	4.9
Cc1ccc(NC(=O)CCSCCc2ccccn2)cc1	-16%	3.5	0.0	0.4	2	0.67	-0.5
O=C(NNC(=S)NC(=O)c1ccccc1)c1ccc(O)cc1	13%	3.6	-0.7	5.5	-9	0.52	2.8
CCCCn1c(=O)cc(O)c2ccccc21	17%	-0.3	1.8	2.8	-4	0.73	1.5
CC1CCN(C(=O)CN2C(=O)COc3ccc(Cl)cc32)CC1	/	3.3	0.2	/	8	/	3.9
Cc1ccnc(NC(c2ccccn2)c2c(C)[nH]c3ccccc23)c1 (stereo unspecified)	1%	-0.3	-0.3	2.6	4	0.68	1.0
COc1cccc(OC)c1Oc1ccc(C(F)(F)F)cn1	-2%	-1.7	0.8	2.9	0	0.72	-1.7
CCn1c(C)nc2cc(C(=O)OC)ccc21	4%	1.2	-0.4	-1.3	0	0.71	1.3
COc1ccccc1/C=C/c1nc(C#N)c(N(C)C)o1	/	1.0	0.7	i	7	0.68	-7.1
CCOC(=O)c1c(C)[nH]c(C(=O)C(C)Sc2ccc(Cl)cc2)c1C (stereo unspecified)	1%	0.4	0.2	1.7	-2	0.67	8.1
CCOc1ccc(NC(=O)CN2C(=O)COc3ccc(S(=O)(=O)N4CCCCC4)cc32)cc1	/	-1.8	0.0	2.9	2	0.68	0.9
COc1ccccc1N(CCOc1ccccc1)S(=O)(=O)c1ccccc1	-3%	3.8	0.3	-1.2	0	0.74	-8.0
CCN(CC)S(=O)(=O)c1ccc(OC)c(NC(=O)c2cc(C)on2)c1	-4%	-2.2	-0.8	-6.3	-1	0.72	-2.7
CCOC(=O)C1=C(C)C(c2ccccc2)NC(=S)N1 (stereo unspecified)	0%	2.8	0.9	7.4	-5	0.72	7.2
O=C(COc1cc(Cl)c(Cl)cc1Cl)NCCc1ccccn1	/	0.1	0.6	1.8	-8	0.69	5.0
C[C@H]1COC(=O)[C@@H](NC(=O)OCC2c3ccccc3-c3ccccc32)C/C=C\C[C@H](CC(=O)NCCO)C(=O)N1	/	0.7	-0.3	0.7	1	/	-5.9
CCCNS(=O)(=O)c1cccn1-c1ncc(C(F)(F)F)cc1Cl	0%	-0.3	1.0	0.9	-7	0.71	4.6
COc1cc(N)ccc1-c1cc2ccccc2oc1=O	/	6.9	-0.5	-3.6	4	0.7	-0.1
Clc1ccc(Cn2ncc3c(NCc4cccnc4)ncnc32)cc1	-3%	1.2	0.1	-1.5	-6	0.72	-2.4
Cc1ccc(NC(=O)NC(=O)N(C(C)C)S(=O)(=O)c2ccc(C)cc2)cc1	-10%	-0.6	0.2	0.1	8	0.65	-3.4
CC(NC(=O)CN(C)Cc1cccc(F)c1)c1ccccc1 (stereo unspecified)	0%	-2.3	1.1	3.8	2	0.65	-0.7
Cc1c(NS(C)(=O)=O)c(=O)n(-c2ccccc2)n1C	2%	-0.3	0.9	3.2	4	0.68	3.1
NCCCCc1cn(CC(=O)N2CCNCC2)nn1	-3%	-2.0	0.1	1.8	4	0.68	1.3
COc1ccccc1NC1=C(Cl)C(=O)OC1OC(=O)c1ccco1 (stereo unspecified)	4%	-2.9	0.2	2.5	-3	0.68	1.0
COc1cc2c(cc1OC)C(C)N(C(=O)Cc1ccc(C(F)(F)F)cc1)CC2 (stereo unspecified)	-12%	0.0	0.0	2.4	9	0.68	-1.1
Cc1ccccc1-n1c(-c2csc3ccccc23)n[nH]c1=S	-15%	-1.0	-0.2	0.9	2	0.72	-0.8
CC1CCCC(C)N1/N=C/c1ccc(C(=O)O)cc1 (stereo unspecified)	-7%	3.4	-1.1	/	-2	/	0.6
Cc1nn(Cc2ccccc2)c(Cl)c1C(=O)OC1CCOC1=O (stereo unspecified)	4%	3.5	0.4	-3.5	-5	0.76	4.5
